Screens as filed in PubChem.
Rango-impB inh: qHTS Assay for Inhibitors of Rango (Ran-regulated importin-beta cargo) - Importin beta complex formation; Rango CFP/YFP FRET sensor + importin beta, 45 min; 340,000 compounds, 0.031% hits; Potency, µM (highest dose often 92.2 µM), without a hit: at the top dose inhibition of complex formation; AID 540263, 2011; active = rising FRET ratio curve, often small or poorly fitted; inconclusive = mostly compound fluorescence or quenching in the first reads; inactive = flat curves in all reads;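 further: potency means the concentration at half of the fitted maximal effect; 0% = DMSO wells and 100% = buffer wells lacking importin beta; nearly all actives have a fitted effect of over 15% in size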
Target sequence (Q14974 whole entry, looked up): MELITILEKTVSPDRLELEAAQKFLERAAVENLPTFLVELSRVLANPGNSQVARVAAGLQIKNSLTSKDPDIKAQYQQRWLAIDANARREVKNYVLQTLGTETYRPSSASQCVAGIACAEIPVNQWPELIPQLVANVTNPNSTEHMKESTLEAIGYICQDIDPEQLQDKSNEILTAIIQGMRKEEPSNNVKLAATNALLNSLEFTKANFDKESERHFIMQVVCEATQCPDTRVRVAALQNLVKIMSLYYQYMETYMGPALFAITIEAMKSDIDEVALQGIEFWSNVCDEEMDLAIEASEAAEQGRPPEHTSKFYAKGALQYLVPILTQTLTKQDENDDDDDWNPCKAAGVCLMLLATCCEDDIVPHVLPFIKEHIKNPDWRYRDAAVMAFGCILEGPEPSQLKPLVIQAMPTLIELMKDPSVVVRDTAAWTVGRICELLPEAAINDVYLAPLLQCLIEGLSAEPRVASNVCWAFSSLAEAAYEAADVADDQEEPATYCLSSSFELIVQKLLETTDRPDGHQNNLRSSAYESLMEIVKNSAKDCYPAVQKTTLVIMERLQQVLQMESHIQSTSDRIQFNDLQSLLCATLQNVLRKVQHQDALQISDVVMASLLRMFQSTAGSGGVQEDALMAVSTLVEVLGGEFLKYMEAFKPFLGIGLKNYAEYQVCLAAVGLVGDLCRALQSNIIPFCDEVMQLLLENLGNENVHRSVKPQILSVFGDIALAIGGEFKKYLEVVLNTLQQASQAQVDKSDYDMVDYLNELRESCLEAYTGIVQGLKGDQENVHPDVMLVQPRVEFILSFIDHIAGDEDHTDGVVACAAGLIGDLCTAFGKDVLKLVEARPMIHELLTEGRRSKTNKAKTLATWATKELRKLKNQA
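FRET biosensor Rango (snurportin 1 IBB between N-terminal EYFP and C-terminal Cerulean), 50 nM in PBS/1 mM DTT/0.02% Tween-20/0.1% BSA, preincubated 5 min RT with compound; 0.125 microM importin beta added, 45 min RT, CFP/YFP FRET ratio read.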
miR-21 FLuc: qHTS Assay for Modulators of miRNAs and/orActivators of miR-21; HeLa miR-21 FLuc reporter, luciferase, 48 h; Potency, µM (top dose mostly 38.3 µM), for the others: at the highest dose reporter change, positive = more light; 340,000 tested, under 10 active; AID 2288, 2010; active = well fitted rising curve with a large enough effect; inconclusive = small, poorly fitted or top-dose-only effect; inactive = no such curve, though single readings can be large or run the other way;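 further: % of control where 0% means no effect; miR-21 action dims this reporter so a rising signal means less miR-21 action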
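HeLa cells endogenously expressing miR-21, stably carrying CMV-driven firefly luciferase with a downstream miR-21 binding site, 2000 cells/well. Titrations up to approximately 40 uM, 48 hours; luciferase luminescence read.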
Rango release inh: qHTS Assay for Inhibitors of RanGTP induced Rango (Ran-regulated importin-beta cargo) - Importin beta complex dissociation; Snurportin-1 (Homo sapiens) + GTP-binding nuclear protein Ran (Homo sapiens) + Importin …; Biochemical FRET Rango-importin beta, RanGTP-induced dissociation; Potency, µM (series often up to 46.1 µM), inactives show at the top dose activity change, negative = inhibition; 340,000 compounds, 0.071% hits; AID 540253, 2011; active means falling FRET ratio curve, often poorly fitted, with flat reads before Ran was added; inconclusive means other falling curves, or compound fluorescence or quenching; inactive means flat or rising ratio curve;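 further: potency means the concentration at half of the fitted maximal effect; % of control where 0% means no effect; nearly all actives have a fitted effect of over 45% in size; -100% = wells without RanGTP and RCC1; the record marks most hits as doubtful in a second field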
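Rango/importin beta premix (0.1/0.25 uM final), PBS + 1 mM DTT + 0.02% Tween-20 + 0.1% BSA; cpd 5 min RT; FRET pre-read; + RanGTP-RCC1 (0.6 uM Ran, 2 mM GTP, 0.2 uM RCC1); 45 min RT; FRET post-read, ex 430, em 486/530 nm.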
GLA inh pH 4.5: qHTS Assay for Inhibitors of Human alpha-Galactosidase at pH 4.5; 230,000 tested, under 10 active; activity change, negative = inhibition, % at 105 µM; Alpha-galactosidase A (Homo sapiens), P06280; purified enzyme, 4-MU-alpha-Gal fluorescence, pH 4.5; inconclusive = small, poorly fitted or top-dose-only inhibition, or a rising curve; inactive = flat fitted curve, though single readings scatter; no compound was filed as active;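 further: 0% = full activity with enzyme and -100% = basal without enzyme; dose as in the result columns while the protocol names 77 µM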
Numbers without * were called inactive; ? = inconclusive; · = no result given; & = joins results of further samples. Not all compounds are listed, so the mix of outcomes need not match the whole.

SMILES	Rango-impB inh	miR-21 FLuc	Rango release inh	GLA inh pH 4.5
Cc1ncccc1C(=O)N1CCCC(CNC(=O)C2(c3ccc(Cl)cc3)CC2)C1 (centres undefined)	3.4%	-1%	-5%	-8
Cc1cc(=O)oc2cc(NC(=O)c3cc4ccccc4o3)ccc12	·	-31%	·	-1
CCOP(=O)(OCC)C(Nc1ccccc1)c1ccco1 (centres undefined)	1.0%	1%	3%	3
Cc1cc(C)nc(N(C#N)Cc2cccc(Cl)c2)n1	1.8%	-15%	-10%	4
COc1cc(/C=C2/NC(=O)NC2=O)cc(Br)c1OCc1ccccc1	-1.9%	-12%	-9%	-4
COc1ccc(S(=O)(=O)N(C)CC(=O)NCc2ccc3c(c2)OCO3)cc1	5.0%	-5%	-12%	·
CCN(CC(=O)Nc1ccc(C(=O)OC)cc1)C1CCCCC1	-2.5%	0%	3%	·
COC(=O)C1=C(N)Oc2cc(C)n(Cc3cccnc3)c(=O)c2C1c1cc(OC)ccc1OC (centres undefined)	-5.1%	1%	-15%	1
COc1ccccc1NC(=O)c1sc2ncn(Cc3cccc4ccccc34)c(=O)c2c1C	-0.1%	-4%	-7%	3
Cc1snc(SCC(=O)c2ccc([N+](=O)[O-])cc2)c1C#N	-3.1%	-21%	15%	6
O=C(N/N=C/c1cc([N+](=O)[O-])ccc1Cl)c1cnccn1	-1.9%	0%	-7%	-6
CCOc1ccc(CCNC(=O)CS(=O)Cc2nc(-c3ccc(C)cc3)oc2C)cc1OCC (centres undefined)	-1.3%	-4%&6%	0%	·
CCN(CC)C(=O)CSc1nnc(CSc2ncccn2)n1C	2.3%	-1%	5%	11
Cc1nn(CC(=O)Nc2ccc3c(c2)nc(CN2CCCCC2)n3C)c(=O)c2ccccc12	1.2%	-1%	-3%	-3
O=S1(=O)CCC(NS(=O)(=O)c2cccc3cccnc23)C1 (centres undefined)	-0.1%	-6%	-9%	-6
O=C(NCC1CCCO1)c1ccc2c(=O)n(CCc3ccccc3)c(=O)[nH]c2c1 (centres undefined)	-2.9%	-6%	3%	15
CCn1c(SCC(=O)NC(=O)NC(C)(C)C)nc2ccccc21	1.2%	-7%	-3%	-6
O=C(O)CSc1nnc(COc2ccc([N+](=O)[O-])cc2)n1-c1ccccc1	4.0%	5%	2%	-1
COc1cc(NC(=O)c2cccc(C)c2)ccc1NC(=O)c1cc2ccccc2o1	-2.1%	-26%	-11%	·
N=c1c(S(=O)(=O)c2ccccc2)cc2c(=O)n3ccccc3nc2n1CC1CCCO1 (centres undefined)	?	-7%	?	-7
COCCCNC(=O)[C@H](Cc1c[nH]c2ccccc12)NC(=O)OCc1ccccc1	1.4%	-1%	13%	·
O=C(NCc1ccco1)c1ccc(C(=O)NCc2ccco2)s1	0.0%	-1%	2%	10
COc1ccc(/C(N)=N/OC(=O)Cc2ccccc2[N+](=O)[O-])cc1	?	-28%	1%	-1
O=C(NN=Cc1ccccc1OC(F)F)c1cccc(S(=O)(=O)N2CCCC2)c1	-2.3%	·	-6%	·
Cc1ccc(/C(N)=N/OC(=O)c2ccco2)cc1	0.4%	-46%	2%	-3
Cc1cc(C(F)F)n2ncc(C(=O)O)c2n1	-0.2%	0%	0%	1
CSc1ccc(S(=O)(=O)NCC(=O)OCC(=O)N(Cc2ccccc2)C(C)C)cc1[N+](=O)[O-]	-0.2%	·	-4%	·
O=C(Oc1ccc2c3c(c(=O)oc2c1)CCC3)c1ccco1	?	-11%	?	?
Nc1nnc(Cc2ccc(Cl)cc2)s1	4.8%	-9%	?	-2
Cc1cc(OCCCN2CCCC2)ccc1Cl	-2.0%	-2%	-6%	·

Some of these compounds in order of count of non-hydrogen atoms, smallest number first.
SMILES	Rango-impB inh	miR-21 FLuc	Rango release inh	GLA inh pH 4.5
Nc1nnc(Cc2ccc(Cl)cc2)s1	4.8%	-9%	?	-2
Cc1cc(C(F)F)n2ncc(C(=O)O)c2n1	-0.2%	0%	0%	1
Cc1cc(OCCCN2CCCC2)ccc1Cl	-2.0%	-2%	-6%	·
Cc1ccc(/C(N)=N/OC(=O)c2ccco2)cc1	0.4%	-46%	2%	-3
O=S1(=O)CCC(NS(=O)(=O)c2cccc3cccnc23)C1 (centres undefined)	-0.1%	-6%	-9%	-6
O=C(Oc1ccc2c3c(c(=O)oc2c1)CCC3)c1ccco1	?	-11%	?	?
O=C(NCc1ccco1)c1ccc(C(=O)NCc2ccco2)s1	0.0%	-1%	2%	10
COc1ccc(/C(N)=N/OC(=O)Cc2ccccc2[N+](=O)[O-])cc1	?	-28%	1%	-1
O=C(O)CSc1nnc(COc2ccc([N+](=O)[O-])cc2)n1-c1ccccc1	4.0%	5%	2%	-1
O=C(NN=Cc1ccccc1OC(F)F)c1cccc(S(=O)(=O)N2CCCC2)c1	-2.3%	·	-6%	·
COc1cc(NC(=O)c2cccc(C)c2)ccc1NC(=O)c1cc2ccccc2o1	-2.1%	-26%	-11%	·
N=c1c(S(=O)(=O)c2ccccc2)cc2c(=O)n3ccccc3nc2n1CC1CCCO1 (centres undefined)	?	-7%	?	-7
CSc1ccc(S(=O)(=O)NCC(=O)OCC(=O)N(Cc2ccccc2)C(C)C)cc1[N+](=O)[O-]	-0.2%	·	-4%	·

The results go on:
SMILES	Rango-impB inh	miR-21 FLuc	Rango release inh	GLA inh pH 4.5
Cc1ccc(OCCOC(=O)c2sc(=S)n(C)c2C)cc1	3.5%	-22%	-12%	-12
COc1ccc(-c2cc(C(=O)N3CCN(S(=O)(=O)c4ccc(C)cc4)CC3)[nH]n2)cc1	9.9%	0%	12%	·
CC(C)C(=O)Nc1cccc(NC(=O)c2cccc(Br)c2)c1	-1.4%	-21%	-16%	-3
Nc1cc(N)nc(SCC(=O)Nc2cccc(S(=O)(=O)N3CCCCC3)c2)n1	2.1%	·	12%	·
Cc1ccc(NC(=O)c2ncn(CCCN(CCCn3cnc(C(=O)Nc4ccc(C)c(C)c4)n3)Cc3ccc4[nH]ccc4c3)n2)cc1C	0.6%	·	7%	·
Cc1nn(Cc2ccc(F)cc2)c(Cl)c1/C=N/NC(=O)c1cccnc1	1.2%	-4%	-14%	-2
COc1cc(NC(=O)Cc2ccccc2)ccc1NC(=O)c1ccco1	7.7%	-35%	0%	-2
Cc1snc(S(=O)(=O)/C(C#N)=N/Nc2cccc(C(F)(F)F)c2)c1C#N	0.1%	-7%	1%	-3
CC1=C(C(=O)OCc2ccccc2)C(c2cccc3ccccc23)NC(=O)N1CCCC(=O)O (centres undefined)	-6.3%	·	-17%	·
CCOc1ccccc1NC(=O)COC(=O)c1cc(C(=O)OC)cc([N+](=O)[O-])c1	-4.3%	-2%	20%	3
Cc1noc(C)c1NC(=O)Nc1ccc2c(c1)C(=O)N([C@H](C)CO)C[C@H](C)[C@@H](CN(C)S(=O)(=O)c1cccs1)O2	1.4%	·	7%	·
Cc1nc(SCC(N)=O)[nH]c(=O)c1CCC(C)C	0.8%	2%	-7%	-4
O=C(CCNc1ccc(F)cc1)c1ccco1	3.6%	-24%	-5%	-6
O=C(Nc1nc2c(s1)CCCC2)c1cccs1	4.8%	7%	3%	4
Cc1cccn2c(=O)c3cc(C(=O)NC4CCCCC4)c(=N)n(CCN4CCOCC4)c3nc12	?	1%	?	12
O=C(c1cc(-c2ccccn2)nc2c(Cl)cccc12)N1CCN(C(=O)C2CCCO2)CC1 (centres undefined)	0.4%	-3%	2%	6
CCCCn1nc(C(=O)N(C)CC(=O)Nc2ccc(F)c(F)c2F)ccc1=O	-0.6%	·	0%	·
COc1ccc(-c2noc3c2-c2nc(-c4ccccc4Cl)sc2CC3)cc1	-0.9%	·	1%	·
Cc1ccsc1C(=O)OCC(=O)NC1CCS(=O)(=O)C1 (centres undefined)	0.9%	-3%	-20%	-13
O=C(CSc1nnc(-c2ccncc2)o1)c1ccc2c(c1)OCCO2	0.1%	1%	8%	-1
O=C(COc1ccc(S(=O)(=O)N2CCOCC2)cc1)Nc1ccccc1C(F)(F)F	-1.6%	-8%	-10%	-1
CCc1nc(SCC(=O)Nc2c(C)n(C)n(-c3ccccc3)c2=O)n[nH]1	-1.4%	0%	15%	-14
O=C(Nc1ccnn1C1CCN(C2CCCC2)CC1)c1ccccc1	-1.5%	-5%	-7%	·
CC(C)(C)OC(=O)N1CCC[C@H]1C(=O)N/N=C/c1ccc2ncccc2c1	-0.6%	-5%	0%	8
COc1ccc(C2=CN(Cc3ccccc3)C(c3ccccc3)CC2=O)cc1 (centres undefined)	?	·	-29%	·
O=C(CCNC(=O)c1ccc([N+](=O)[O-])cc1)NC1CCCCCC1	-1.4%	·	1%	·
COCOc1ccc(C2CC(=O)c3c(OCOC)cc(OCOC)cc3O2)cc1 (centres undefined)	-2.9%	·	-21%	·
Cc1cc(=O)n2[nH]c(-c3cccnc3)nc2n1	·	-3%	·	-8
O=c1cc(C=NNc2ccc([N+](=O)[O-])cc2)[nH]c(=O)[nH]1	?	·	?	·
O=C(c1ccc(Cl)c(S(=O)(=O)N2CCCC2)c1)N1CCN(c2ccccc2F)CC1	-0.3%	11%	-5%	-1
O=C(NCCOC(=O)c1ccc([N+](=O)[O-])cc1)c1cccnc1	-1.0%	1%	-12%	4
Cc1ccc(C(=O)CC(c2cccs2)S(=O)(=O)c2ccc(C)cc2)cc1 (centres undefined)	0.9%	-17%	-11%	-8
O=C(NCc1cccc(Br)c1)c1cc(-c2ccccc2)nn1CC1CC(c2cccc([N+](=O)[O-])c2)=NO1 (centres undefined)	-0.2%	·	7%	·
COc1ccc(CCNC(=O)COC(=O)c2cncc(Br)c2)cc1OC	?	·	-8%	·
CC(=O)c1nnn(-c2nc(N)nc(N(c3ccccc3)c3ccccc3)n2)c1C	0.8%	0%	1%	-11
COc1ccc(-c2cc(=O)c3c(OC)c(OC)c(OC)c(OC)c3o2)cc1OC	-0.4%	-2%&-12%	-11%	3&-16&-27
O=C1/C(=C/c2ccccn2)SC(=S)N1Nc1ncc(C(F)(F)F)cc1Cl	-1.0%	·	-10%	·
O=C(CCN1C(=O)c2ccccc2S1(=O)=O)Nc1ccc(F)c(F)c1F	0.6%	·	-4%	·
CCCCNC(=S)Nc1ccc(C(F)(F)F)cc1	-1.1%	15%	1%	0
O=C(Nc1nnc(C2=COCCO2)o1)C1CCCCC1	-4.4%	2%	-2%	5
Cc1ccc(C(c2sc3nc(C)nn3c2O)N2CC(C)OC(C)C2)cc1 (centres undefined)	5.8%	-6%	31%	-1
CSCc1ccc(C(=O)Nc2cccc(C)c2C)cc1	2.1%	-58%	5%	-1
CCOCCCNC(=O)c1ccc(NC(=O)C2=CSCCO2)cc1	0.5%	-18%	-5%	·
COC(=O)c1ccccc1NC(=S)N1CCN(c2ccc(OC)cc2)CC1	0.4%	2%	10%	0
CC(C)(C)NC(=O)CSc1nc(-c2ccccc2)cc(=O)[nH]1	-2.6%	2%	27%	-3
CCN(C(=O)N(CC)c1ccccc1)c1ccccc1	-0.2%	·	-5%	·
CCNC(=S)/N=C(/Nc1ccc(OC)cc1)Nc1nc(C)cc(C)n1	5.3%	-4%	4%	-3
CCOC(=O)c1c(C)[nH]c(C(=O)OCc2c(C)noc2C)c1C	1.8%	2%	18%	-5
CCN(CC)C(=O)C(C)N(C#N)c1nc(Cl)nc(N(C)C)n1 (centres undefined)	1.8%	0%	2%	1
Cc1cccc(N2CCN(C(=O)N3CCCCC3)CC2)c1C	-0.9%	-3%	-1%	-1
